# YB-1 expression: YB-1 expression inhibition; U2OS, qRT-PCR YB-1 vs CDIP delta delta Cp, 16 h; active compounds read high; zero = DMSO, each unit about twofold; delta delta Cp (YB-1 minus CDIP) (concentration not given with the values); 30,000 compounds, 0.37% hits; AID 434959;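 active means delta delta Cp rounded down to an integer at or above 3, about 3 SD of DMSO wells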;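 further: higher means less YB-1 transcript or more CDIP transcript relative to DMSO; stock transfer was 100 nL into about 100 µL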
# The depositor's hits bear a star. These rows are one share of the data; the hit share may differ from the screen's.
smiles | YB-1 expression
COCCOC(=O)N1C(=O)[C@@]2(c3cc(C#CC4=CCCCC4)ccc31)[C@H](C(=O)N1CCc3cc(OC)c(OC)cc3C1)[C@H]1C(=O)O[C@H](c3ccccc3)[C@H](c3ccccc3)N1[C@@H]2c1ccc(O)cc1 | -0.094
C[C@H](CO)N1C[C@H](C)[C@@H](CN(C)Cc2ccc(O)cc2)OCc2cn(nn2)CCCC1=O | 0.33
COc1cccc(S(=O)(=O)N(C)C[C@@H]2Oc3ncc(/C=C/c4ccccc4)cc3C(=O)N([C@H](C)CO)C[C@@H]2C)c1 | -0.0019
COC(=O)CCCCCCC(=O)N/N=C/C[C@@H](C)CCC=C(C)C | -0.22
COC(=O)C(CC#Cc1ccc2c(c1)[C@]1(C(=O)N2)[C@H](c2ccc(O)cc2)N2[C@H](c3ccccc3)[C@H](c3ccccc3)OC(=O)[C@H]2[C@@H]1C(=O)N1CCN(c2ncccn2)CC1)C(=O)OC | -0.12
C[C@H](CO)N1C[C@H](C)[C@@H](CN(C)C(=O)c2cc(-c3ccccc3)on2)OCc2cnnn2CCCC1=O | -0.25
COc1cccc(CN(C)C[C@H]2OCc3cnnn3CCCC(=O)N([C@@H](C)CO)C[C@@H]2C)c1 | -0.74
CC(C)COC(=O)N(C)C[C@H]1OCc2cn(nn2)CCCC(=O)N([C@H](C)CO)C[C@@H]1C | 0.23
C[C@H](CO)N1C[C@H](C)[C@@H](CN(C)S(=O)(=O)c2ccccc2)OCc2cn(nn2)CCCC1=O | 0.12
C=CC[C@@]1(C(=O)OC)N=C(c2ccc(OCCCO)cc2)O[C@@H]1c1ccccc1 | -0.39
C=CCCN(CC#C[C@H]1Oc2ccccc2S(=O)(=O)N2CCC[C@@H]12)S(=O)(=O)c1ccc(C)cc1 | -0.11
NC(=O)COc1ccc(/C=N/NC(=O)CCCCC(=O)NO)cc1 | 0.27
COc1cc2c(cc1OC)CN(C(=O)[C@@H]1[C@H]3C(=O)O[C@H](c4ccccc4)[C@H](c4ccccc4)N3[C@H](c3ccc(OCCO)cc3)[C@@]13C(=O)Nc1ccc(C#CC4(O)CCCCCC4)cc13)CC2 | 0.2
CC(C)NC(=O)N(C)C[C@@H]1OCc2cn(nn2)CCCC(=O)N([C@@H](C)CO)C[C@H]1C | 0.19
CC1(C)COC(CCC/C=N/NC(=O)CCCCC(=O)NO)OC1 | 0.35
CCCCN(CCCC)c1ccc(/C=N/NC(=O)CCCCC(=O)NO)cc1 | 0.045
C[C@@H]1CN([C@@H](C)CO)C(=O)CCCn2cc(nn2)CO[C@H]1CN(C)S(=O)(=O)c1cccc(F)c1 | -0.27
COCCOC(=O)N1C(=O)[C@@]2(c3ccccc31)[C@H](C(N)=O)[C@H]1C(=O)O[C@H](c3ccccc3)[C@H](c3ccccc3)N1[C@@H]2c1ccc(OCCO)cc1 | 0.61
COc1ccc([Si](C)(C)[C@H]2[C@H](CCn3cc(CCO)nn3)O[C@@]3(C(=O)N(Cc4ccc(N5CCOC5=O)cc4)c4ccccc43)[C@@H]2C)cc1 | 0.13
C[C@H]1CN([C@@H](C)CO)C(=O)CCCn2nncc2CO[C@H]1CN(C)Cc1ccccc1C(F)(F)F | 0.27
COc1cc(/C=N/NC(=O)c2ccccc2O)c(Br)cc1O | -0.096
O=C1N(Cc2ccccc2)Cc2ccccc2[C@H]2OC(c3ccc(OCCCO)cc3)=N[C@@]12CCS(=O)(=O)c1ccccc1 | 0.13
O=C(NO)c1ccc(C(=O)N/N=C/c2ccc(-c3ccccc3)cc2)cc1 | -0.18
C[C@@H]1CN([C@H](C)CO)C(=O)CCCn2cc(nn2)CO[C@@H]1CN(C)C(=O)Nc1cccc(F)c1 | 0.037
CC(C)OC(=O)N(C)C[C@@H]1OCc2cnnn2CCCC(=O)N([C@@H](C)CO)C[C@@H]1C | -0.28
COc1cccc(CN(C)C[C@@H]2OCc3cn(nn3)CCCC(=O)N([C@@H](C)CO)C[C@@H]2C)c1 | -0.19
C[C@H](CO)N1C[C@H](C)[C@H](CN(C)C(=O)C2CCCCC2)OCc2cn(nn2)CCCC1=O | 0.23
COCCOC(=O)N1C(=O)[C@@]2(c3cc(C#CCC(C(=O)OC)C(=O)OC)ccc31)[C@H](C(=O)N1CCN(c3ncccn3)CC1)[C@H]1C(=O)O[C@H](c3ccccc3)[C@H](c3ccccc3)N1[C@@H]2c1ccccc1OCCO | 0.49
C[C@H]1CN([C@@H](C)CO)C(=O)CCCn2cc(nn2)CO[C@H]1CN(C)S(=O)(=O)c1ccccc1C#N | -0.027
C[C@@H]1CN([C@H](C)CO)C(=O)CCCn2nncc2CO[C@@H]1CN(C)Cc1ccc(Cl)c(Cl)c1 | -0.11
C[C@H]1CN([C@@H](C)CO)C(=O)CCCn2nncc2CO[C@@H]1CN(C)Cc1ccc(Oc2ccccc2)cc1 | 0.18
O=C(NO)c1cccc(C(=O)N/N=C/c2ccc(O)cc2O)c1 | -0.5
CN(C)CCCOc1ccc(/C=N/NC(=O)c2cccc(C(=O)NO)c2)cc1 | -0.36
C[C@@H]1CN([C@@H](C)CO)C(=O)CCCn2nncc2CO[C@@H]1CN(C)S(=O)(=O)c1ccc(F)cc1 | -0.12
CN(C)CCCCCCNC(=O)[C@@H]1C[C@@H]2C(=O)N3CCC[C@H]3C(=O)N2[C@@H]1c1ccc(O)cc1 | 0.22
O=C1O[C@H](c2ccccc2)[C@H](c2ccccc2)N2[C@H]1[C@@H](C(=O)O)[C@]1(C(=O)Nc3ccc(C#CCCO)cc31)[C@H]2c1ccccc1OCCO | -0.1
O=C(O)C1=C[C@H](c2ccc3c(c2)Cc2ccccc2-3)C[C@H](OCc2ccc(CO)cc2)O1 | -0.3
C[C@@H]1CN([C@H](C)CO)C(=O)CCCn2cc(nn2)CO[C@H]1CN(C)S(=O)(=O)c1cn(C)cn1 | 0.072
C[C@H]1CN([C@@H](C)CO)C(=O)CCCn2nncc2CO[C@@H]1CN(C)Cc1cccc(C(F)(F)F)c1 | 0.36
O=C(O)CCCCCC(=O)N/N=C/c1cc(Br)ccc1O | -0.025
C[C@H](CO)N1C[C@H](C)[C@H](CN(C)C(=O)Nc2ccccc2)Oc2ncc(-c3cccc(C(F)(F)F)c3)cc2C1=O | 0.088
COc1cc(/C=C/C=N/NC(=O)CCCCCC(=O)Nc2ccccc2O)ccc1O | -0.35
C[C@H](CO)N1C[C@H](C)[C@H](CN(C)C(=O)Nc2ccc(N3CCCCC3)cc2)OCc2cn(nn2)CCCC1=O | -0.1
C[C@@H]1CN([C@@H](C)CO)C(=O)CCCn2nncc2CO[C@@H]1CN(C)C(=O)C1CC1 | -0.37
C[C@H](CO)N1C[C@H](C)[C@@H](CN(C)C(=O)Nc2ccnc(N3CCOCC3)c2)OCc2cnnn2CCCC1=O | -0.14
C[C@H]1CN([C@@H](C)CO)C(=O)CCCn2cc(nn2)CO[C@H]1CN(C)C(=O)CCCN(C)C | -0.13
C[C@H]1CN([C@@H](C)CO)C(=O)CCCn2cc(nn2)CO[C@H]1CN(C)C(=O)Nc1ccccc1 | 0.34
COc1ccc([Si](C)(C)[C@H]2[C@H](CCn3cc(CCO)nn3)O[C@@]3(C(=O)N(Cc4ccc(N5CCC5=O)cc4)c4ccccc43)[C@@H]2C)cc1 | -0.057
Cc1noc(C)c1S(=O)(=O)N(C)C[C@H]1OCc2cn(nn2)CCCC(=O)N([C@@H](C)CO)C[C@@H]1C | -0.22
C[C@H]1CN([C@@H](C)CO)C(=O)CCCn2cc(nn2)CO[C@@H]1CN(C)C(=O)c1ccc(N2CCN(C)CC2)cc1 | -0.2
O=C(NO)c1ccc(C(=O)N/N=C/c2cc(O)ccc2[N+](=O)[O-])cc1 | -0.19
C[C@H]1CN([C@@H](C)CO)C(=O)CCCn2cc(nn2)CO[C@H]1CN(C)S(=O)(=O)c1ccc2ccccc2c1 | 0.0017
COc1ccc([Si](C)(C)[C@@H]2[C@@H](CCn3cc([C@H](O)c4ccccc4)nn3)O[C@]3(C(=O)N(Cc4ccc(N5CCOC5=O)cc4)c4ccccc43)[C@H]2C)cc1 | -0.14
COc1ccc(/C=N/NC(=O)c2ccccc2O)cc1O | -0.082
CCn1c2ccccc2c2cc(/C=N/NC(=O)CCCCCCC(=O)Nc3ccccc3O)ccc21 | 0.29
N#Cc1ccc(/C=N/NC(=O)c2ccccn2)cc1 | 0.079
COc1ccc(/C=N/NC(=O)c2cccc(C(=O)NO)c2)cc1OC | -0.57
Cc1ccc(CN(C)C[C@H]2OCc3cnnn3CCCC(=O)N([C@@H](C)CO)C[C@H]2C)cc1 | -0.24
O=C(NO)c1cccc(C(=O)N/N=C/c2ccccc2[N+](=O)[O-])c1 | 0.18
O=C1O[C@H](c2ccccc2)[C@H](c2ccccc2)N2[C@H]1[C@@H](C(=O)NC[C@H](O)c1ccccc1)[C@]1(C(=O)Nc3ccc(C#CC4=CCCCC4)cc31)[C@H]2c1ccccc1OCCO | -0.51

# Of the compounds above, these have a COOH group.
smiles | YB-1 expression
O=C1O[C@H](c2ccccc2)[C@H](c2ccccc2)N2[C@H]1[C@@H](C(=O)O)[C@]1(C(=O)Nc3ccc(C#CCCO)cc31)[C@H]2c1ccccc1OCCO | -0.1
O=C(O)C1=C[C@H](c2ccc3c(c2)Cc2ccccc2-3)C[C@H](OCc2ccc(CO)cc2)O1 | -0.3
O=C(O)CCCCCC(=O)N/N=C/c1cc(Br)ccc1O | -0.025

# Next structures
smiles | YB-1 expression
COc1ccc(S(=O)(=O)N(C)C[C@H]2OCc3cn(nn3)CCCC(=O)N([C@@H](C)CO)C[C@@H]2C)cc1 | 0.068
COc1ccc(NC(=O)O[C@H](c2ccc(OCCO)cc2)[C@@H](C)CCO)cc1 | -0.062
C[C@H]1CN([C@@H](C)CO)C(=O)CCCn2nncc2CO[C@H]1CN(C)S(=O)(=O)c1ccc2c(c1)OCCCO2 | -0.28
C[C@@H]1CN([C@H](C)CO)C(=O)CCCn2nncc2CO[C@H]1CN(C)Cc1ccccc1 | -0.088
O=C(N/N=C/c1ccccc1C(=O)O)c1ccccc1O | 0.29
C[C@@H]1CN([C@H](C)CO)C(=O)CCCn2cc(nn2)CO[C@@H]1CN(C)Cc1cccc(O)c1 | -0.14
C=CCNC(=O)[C@@H]1[C@H]2C(=O)O[C@H](c3ccccc3)[C@H](c3ccccc3)N2[C@H](c2ccccc2OCCO)[C@@]12C(=O)Nc1ccc(C#CC3=CCCCC3)cc12 | 0.51
N#Cc1ccc(/C=N/NC(=O)c2ccc(C(=O)NO)cc2)cc1 | 0.72
O=C(CCCCCC(=O)Nc1ccccc1O)N/N=C\c1cccnc1Cl | -0.44
O=C(N/N=C/c1cccc(OCCO)c1)c1ccccc1O | -0.012
CCOC(=O)N(C)C[C@H]1OCc2cnnn2CCCC(=O)N([C@@H](C)CO)C[C@H]1C | -1
C[C@H]1CN([C@@H](C)CO)C(=O)CCCn2cc(nn2)CO[C@@H]1CN(C)C(=O)c1ccccc1 | -0.35
CC(C)NC(=O)Nc1ccc2c(c1)C(=O)N([C@@H](C)CO)C[C@H](C)[C@@H](CN(C)Cc1ccc(C(=O)Nc3ccccc3N)cc1)O2 | 0.47
COc1cccc(CN(C)C[C@@H]2OCc3cnnn3CCCC(=O)N([C@H](C)CO)C[C@@H]2C)c1 | -0.3
O=C(N/N=C/c1ccc(-n2ccnc2)cc1)c1ccccc1O | -0.24
O=C(O)CCCCCC(=O)N/N=C/c1ccc(CO)o1 | -0.028
O=C(NO)c1ccc(C(=O)N/N=C/c2ccccc2OCCO)cc1 | -0.079
O=C1O[C@@H](c2ccccc2)[C@@H](c2ccccc2)N2[C@@H](c3ccccc3OCCO)[C@]3(C(=O)Nc4ccccc43)[C@@H](C(=O)N3CCCCCCC3)[C@H]12 | 0.17
Cc1cccc(CN(C)C[C@H]2OCc3cn(nn3)CCCC(=O)N([C@@H](C)CO)C[C@@H]2C)c1 | 0.18
C=CCNC(=O)[C@H]1[C@@H]2C(=O)O[C@@H](c3ccccc3)[C@@H](c3ccccc3)N2[C@@H](c2ccccc2OCCO)[C@]12C(=O)Nc1ccc(C#CCNC(N)=O)cc12 | 0.35

# Part of the list above in order of count of non-hydrogen atoms, rising:
smiles | YB-1 expression
O=C(N/N=C/c1cccc(OCCO)c1)c1ccccc1O | -0.012
O=C(N/N=C/c1ccc(-n2ccnc2)cc1)c1ccccc1O | -0.24
COc1ccc(NC(=O)O[C@H](c2ccc(OCCO)cc2)[C@@H](C)CCO)cc1 | -0.062
C=CCNC(=O)[C@@H]1[C@H]2C(=O)O[C@H](c3ccccc3)[C@H](c3ccccc3)N2[C@H](c2ccccc2OCCO)[C@@]12C(=O)Nc1ccc(C#CC3=CCCCC3)cc12 | 0.51

# Next section
smiles | YB-1 expression
COc1cccc(NC(=O)N(C)C[C@H]2OCc3cn(nn3)CCCC(=O)N([C@@H](C)CO)C[C@H]2C)c1 | 0.42
C[C@H]1CN([C@@H](C)CO)C(=O)CCCn2nncc2CO[C@@H]1CN(C)S(=O)(=O)c1ccccc1 | -0.25
COc1ccc([Si](C)(C)[C@@H]2[C@@H](CCn3cc([C@H](O)c4ccccc4)nn3)O[C@]3(C(=O)N(Cc4cccc(N5CCOC5=O)c4)c4ccccc43)[C@H]2C)cc1 | -0.068
CC(C)COC(=O)N(C)C[C@H]1OCc2cnnn2CCCC(=O)N([C@H](C)CO)C[C@@H]1C | -0.025
C[C@@H]1CN([C@H](C)CO)C(=O)CCCn2cc(nn2)CO[C@H]1CN(C)C(=O)Nc1ccc2c(c1)OCO2 | 0.16

# Assay outcomes (PubChem)
